Screening results from PubChem.
TRPML1 blocker – human mucolipin-1 channel inhibition. Q9GZU1. TRPML1-inducible cells, Ca2+ dye fluorescence, FDSS; stronger effect = lower value; inhibition of EC80 agonist-evoked calcium signal. activity change, negative = inhibition, % (no concentration beside the values). 390,000 compounds, 0.02% hits. AID 624415; in the data active means activity change below about -50%; inconclusive means about -30% to -50%; inactive means above about -30%;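 further: stimulus is agonist 54-4 at its EC80 concentration; on the % scale 0 is the no-effect control and ±100 the full control effect; compound concentration not given in the record; the text of the record puts the active cut at -80%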
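Tet-induced TRPML1-DL cells loaded with Ca8 no-wash calcium dye were read kinetically on FDSS. Compound addition was followed by EC80 agonist 54-4 (4 uM final); inhibition was read over 110 s.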
Menin-MLL FL inh – menin-MLL binding inhibition, fluorescein peptide. Fluorescence polarization, fluorescein-MLL peptide displacement from menin. FP activity change, % at 61.4 µM. 290,000 tested, under 10 active. AID 1766; inconclusive = falling polarisation curve, or a change in total fluorescence; inactive = total fluorescence flat and polarisation flat or rising; no compound was filed as active; the % refers to the polarisation; negative = inhibition;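 further: % of control where 0% means no effect; inhibitors lower the polarisation; unlabelled MLL peptide was the positive control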
TRPV1 PAM – human TRPV1 potentiation; TRPV1-expressing cells, Fluo-8 calcium influx, capsaicin EC20 potentiation; host cell line not named in the record; control for the full effect not named in the record; AID 540277; potentiation, % at 8.33 µM; 320,000 compounds, 0.02% hits; Q8NER1; active means potentiation above 80%; inconclusive means 30% to 80%; inactive means below 30%; further: 0% is about no effect
Target sequence (Q8NER1 whole entry, looked up): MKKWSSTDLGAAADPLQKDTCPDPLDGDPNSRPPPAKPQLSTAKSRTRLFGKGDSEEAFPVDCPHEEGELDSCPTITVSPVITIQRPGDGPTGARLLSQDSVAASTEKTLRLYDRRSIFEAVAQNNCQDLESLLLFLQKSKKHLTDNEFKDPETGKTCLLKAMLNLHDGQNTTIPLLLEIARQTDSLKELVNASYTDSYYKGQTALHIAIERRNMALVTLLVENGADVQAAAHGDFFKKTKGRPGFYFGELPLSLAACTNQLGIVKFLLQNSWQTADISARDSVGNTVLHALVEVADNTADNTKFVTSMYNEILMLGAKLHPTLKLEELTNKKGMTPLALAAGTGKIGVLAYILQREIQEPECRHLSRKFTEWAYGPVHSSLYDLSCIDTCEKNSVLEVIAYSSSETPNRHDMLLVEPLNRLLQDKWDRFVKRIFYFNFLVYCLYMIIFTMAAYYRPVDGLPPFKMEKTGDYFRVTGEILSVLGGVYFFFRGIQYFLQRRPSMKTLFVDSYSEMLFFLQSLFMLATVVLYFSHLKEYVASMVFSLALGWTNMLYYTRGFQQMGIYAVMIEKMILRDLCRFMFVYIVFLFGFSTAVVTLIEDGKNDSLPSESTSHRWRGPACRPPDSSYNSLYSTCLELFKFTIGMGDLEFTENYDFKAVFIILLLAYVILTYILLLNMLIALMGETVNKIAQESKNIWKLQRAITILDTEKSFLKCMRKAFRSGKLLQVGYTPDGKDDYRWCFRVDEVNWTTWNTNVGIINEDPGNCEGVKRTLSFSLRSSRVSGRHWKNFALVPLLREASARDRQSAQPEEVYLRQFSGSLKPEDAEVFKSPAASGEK
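Fluo-8 calcium influx in TRPV1-expressing cells, kinetic read (ex 480/em 520 nm). Compound added and read 3 min for agonist activity, followed by capsaicin at EC20 final and 2 min further read for enhancement.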
TRPML1 agonist – human mucolipin-1 channel agonism; TRPML1-expressing cells, Ca2+ dye fluorescence, FDSS; host cell line not named in the record; reference of the full effect not given here; activation, % (test concentration not listed); 410,000 compounds, 0.12% hits; in the data active = activation above about 50%; inconclusive = about 30% to 50%; inactive = below about 30%; further: 0% is about no effect; the text of the record puts the active cut at 80%
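TRPML1-DL cells, Tet-induced overnight (~16 h, 37 degrees C), loaded 45-90 min at room temperature with Ca8 no-wash calcium dye plus quencher. FDSS fluorescence: 10 s baseline, compound pin-transfer, 110 s agonist read, then EC80 54-4 (4uM final) and 110 s antagonist read.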
PINK1 expr mod – modulators of PINK1 expression | AID 624263 | 410,000 compounds, 0.2% hits | Potency, µM (titrated, usually from 76.6 µM), for the others: top-dose activation (PINK1 increase), most hits filed as activators | PINK1 immunofluorescence, high-content cytometry, 24 h; active = well fitted activation curve with a large enough effect; inconclusive = small, poorly fitted or top-dose-only effect; inactive = flat fitted curve, though single readings scatter; cell line not stated here;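 further: potency means the concentration at half of the fitted maximal effect; % of control where 0% means no effect; nearly all actives have a fitted effect of over 65% in size; a mitochondrial uncoupler was the plate control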
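Fluorescence from anti-PINK1 antibody, together with nuclear and cell stains, was scanned on a laser-scanning cytometer. Before staining, stable-line cells were incubated 24 hours with compounds at 5 concentrations; primary antibody 12 h at 10 degrees C.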
Sfp PPTase inh – inhibitors of Bacillus subtilis Sfp phosphopantetheinyl transferase; Biochemical Sfp PPTase activity, qHTS; Potency, µM, inactives show max response, negative = inhibition, most hits filed as inhibitors; 310,000 compounds, 3.5% hits; active means well fitted inhibition curve with a large enough effect; inconclusive means small, poorly fitted or top-dose-only effect, or another doubt; inactive means no such curve, though single readings can be large or run the other way;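 further: the enzyme is Sfp with the accession as filed and its product quenches rhodamine fluorescence; potency means the concentration at half of the fitted maximal effect; 0% = enzyme reaction without inhibitor and -100% = no enzyme wells; top concentration of the series not given in the record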
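After 15 min at room temperature with compound, 15 nM Sfp received 5 uM rhodamine-CoA plus 12.5 uM BHQ-2-ybbR (50 mM Hepes pH 7.6, 10 mM MgCl2). Rate came from the fluorescence difference over 30 min, ex 525/em 598 nm.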
ClpP mod – qHTS Assay for Activators of ClpP | Potency, µM (titrated, usually from 57.5 µM), inactives show at the highest dose activity change, negative = active | ATP-dependent Clp protease proteolytic subunit (Bacillus subtilis (strain 168)), P80244 | purified B. subtilis ClpP, FRET peptide cleavage, 20 min | AID 651965, 2013 | 340,000 compounds, 1.9% hits; active = well fitted falling curve with a large enough effect; inconclusive = small, poorly fitted or top-dose-only effect; inactive = no such curve, though single readings can be large or run the other way; further: potency means the concentration at half of the fitted maximal effect; the source files actives as falling curves though it sought activators and does not explain the sign; nearly all actives have a fitted effect of over 65% in size; many hits overshoot -100%
Target sequence (P80244 whole entry, looked up): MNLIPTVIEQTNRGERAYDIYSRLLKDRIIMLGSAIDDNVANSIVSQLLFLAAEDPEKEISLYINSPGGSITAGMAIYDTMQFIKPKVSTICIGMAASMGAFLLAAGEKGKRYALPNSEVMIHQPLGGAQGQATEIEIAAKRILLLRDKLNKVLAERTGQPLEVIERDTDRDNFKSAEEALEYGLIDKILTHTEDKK
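Purified B. subtilis ClpP, 10 microg/mL final in Tris/HCl pH8 with KCl, BSA, glycerol and Tween-20, cleaved an Abz/nitrotyrosine-quenched decapeptide. Fluorescence (ex 320, em 430) was read at 0 and 20 min at room temperature. Delta was normalized to 5.8 microM ADEP and DMSO/no-enzyme controls.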
Numbers without * were called inactive; ? = inconclusive; nt = no result given; & = joins results of further samples; [ ] = another dose, or the depositor's remark. Not a hit list; 4.4% or so of the library scored in one or more.

molecule	Menin-MLL FL inh	Sfp PPTase inh	TRPV1 PAM	ClpP mod	TRPML1 blocker	PINK1 expr mod	TRPML1 agonist
Cc1cc(NC(=O)c2ccc(Cn3cc([N+](=O)[O-])cn3)o2)no1	nt	6%	-5	0.5%	8	-0.9%	-0.5
COc1ccc(S(=O)(=O)NCc2cccn2Cc2cccc(C)c2)cc1Cl	nt	nt	nt	-4.9%	-8	?	4.7
COc1ccc(N2C(=O)C(F)(F)C2c2ccccc2F)cc1 (stereo not drawn)	?	-8%	3	0.2%	-14	1.9%	1.4
O=S(=O)(N1CCOCC1)N1CCOCC1	8.2	8%	3	nt	-5	1.8%	-0.3
CCCCCCCCCCCCCCCCCCOCC(O)CO (stereo not drawn)	-1.0	31%[activator]	nt	nt	nt	0.3%	nt
CCc1nonc1NC(=O)c1oc2cc(C)c(C)cc2c1C	nt	8%	-18	?	12&41	4.4%&3.8%	0.5&-0.6
CN(C)CCCNC(=O)C(=O)NCC1CCCO1 (stereo not drawn)	0.2	4%	7	-2.2%	0	0.7%	-1.2
Cc1ccc2nc(/C(C#N)=C\c3ccc(N4CCOCC4)o3)[nH]c2c1	1.8	-4%	2	1.1%	24	11µM*	?
COc1ccc(C(c2c(NC(=O)c3ccco3)sc(C)c2C)N2CCOCC2)cc1 (stereo not drawn)	nt	nt	8	-9.1%	-7	2.7%	-1.1
O=C(NCc1ccco1)c1ccc(Cl)c(S(=O)(=O)N2CCOCC2)c1	-0.9	-15%	2	0.8%	-2	-3.4%[38.3 µM]	-0.6
CCN(CC)C(=O)Cn1c(=O)n(Cc2ccc(C(=O)NCCCOC)cc2)c(=O)c2ccccc21	nt	nt	nt	?	-5	0.2%	1.6
CC1CCN(C(=O)CSc2nc3c(c(=O)n2C)SC(C)C3)CC1 (stereo not drawn)	nt	7%	-3	-0.2%	?	0.7%	-0.3
COc1ccc2[nH]c3c(c2c1)CCN1C(=O)C(CC(=O)NCC24CC5CC(CC(C5)C2)C4)C[C@H](C(=O)N(C(C)C)C(C)C)[C@@]31C (stereo partly drawn)	nt	nt	nt	-0.6%	1	?	-0.9
COc1ccc(NC(=O)CNCc2cccs2)c(OC)c1	nt	nt	nt	0.3%	6	1.1%	-0.4
Cc1c(C(=O)NCc2ccc3c(c2)OCCO3)sc(=O)n1Cc1ccccc1C#N	nt	nt	nt	-3.4%	nt	-0.8%	0.0
CCCCOc1cc(=O)[nH]c(=O)[nH]1	1.1	1%	-5	-0.3%	-1	0.4%	-0.5
CC(C)(C)NC(=O)C(c1ccc(O)cc1)N(C(=O)CCC(=O)Nc1ccccn1)c1ccc(F)cc1 (stereo not drawn)	-5.2	26%	-4	nt	-14	0.1%	0.7
C#CCN1C(=O)C(O)(CC(=O)c2ccc(OC)c(OC)c2)c2cc(Br)ccc21 (stereo not drawn)	nt	nt	nt	-6.9%	-9	3.3%	1.6
O=C(O)/C=C/c1ccc(S(=O)(=O)Nc2ccccc2C(=O)Nc2ccc(F)cc2)cc1	-2.4	1%	25	nt	14	-1.4%	-0.4
CCN(CC(=O)Nc1c(F)cccc1F)C(=O)C1CCN(S(=O)(=O)c2ccccc2C(=O)OC)CC1	nt	nt	nt	-2.6%	-9	-0.3%	0.1
CCN(CC)/[N+]([O-])=N/OCOC(=O)C(C)c1ccc2cc(OC(C)=O)ccc2c1 (stereo not drawn)	nt	nt	nt	nt	30	-1.4%	2.1
CN(Cc1cccc(Cl)c1Cl)C(=O)c1ccccc1SCC(=O)N1CCCC1	nt	nt	nt	nt	4	4.5%	0.4
CC(CN1CCN(CC(C)C(=O)c2ccccc2)CC1)C(=O)c1ccccc1 (stereo not drawn)	nt	nt	nt	1.1%	-4	1.5%	-0.5
Clc1ccccc1CSc1nnc(Cn2cnc3ccccc32)n1-c1ccccc1	-0.3	15%	-3	1.7%	-4	-2.9%	0.7
CCOC(=O)C1(O)CC(C)=NN1C(=O)c1cccc(Br)c1 (stereo not drawn)	1.4	15%	8	nt	17	-2.1%	2.9
CC(C)c1ccc2[nH]c(O)c(N=NC(=O)c3cccc(S(=O)(=O)Nc4cccc(Cl)c4)c3)c2c1	-0.7	9%	-5	nt	-16	7.2%	0.0
CC1(Cc2cccc(C(F)(F)F)c2)C(=O)Nc2c(Cl)ccc(Cl)c21 (stereo not drawn)	nt	nt	nt	1.9%	nt	11%	0.0
CCOc1ccc(CCNC(=O)Cn2ncn3c(cc4ccccc43)c2=O)cc1OCC	nt	nt	nt	-3.8%	-15	1.9%	-0.4
COc1ccccc1CN1C(=O)C(=O)N(Cc2cccc(C)c2)C1=O	6.4	-4%	-3	nt	1	-1.3%	2.8
O=C(COc1ccccc1Cl)Nc1cc(-c2ccccc2F)nn1-c1ccccc1	nt	nt	nt	0.7%	1	-0.4%	-0.4
Nc1nc(CN2CCN(Cc3ccccc3)CC2)nc(N2CCCc3ccccc32)n1	-2.8	20%	10	1.0%	-5	0.4%	0.2
CC(C)(C)n1ncc2c(=O)n(CC(=O)NCc3ccccc3Cl)cnc21	-2.8	7%	-1	0.8%	-5	-0.6%	0.1
CC1CCN(c2ncnc3c2nnn3C)CC1	nt	nt	nt	2.5%	-3	0.7%	-0.3
COc1cc(/C=N/NC(=O)c2ccncc2)ccc1OC(=O)c1cccc(F)c1	nt	10%	21	-1.6%	-7	3.6%	-1.0
Cc1cc(=O)oc2cc(OCC(=O)NC3CCCCC3)c(Cl)cc12	nt	nt	nt	nt	-15	1.7%	-0.8
Cc1cc(=O)[nH]c(SCC(=O)Nc2ccccc2C#N)c1C#N	0.0	32µM*	-1	-3.3%	20	-0.6%	1.5
CC1=C(C(=O)Nc2ccccc2)C(c2ccccc2)n2nc(-c3ccco3)nc2N1 (stereo not drawn)	nt	nt	nt	-2.0%	-13	9.9%	0.0
CC1(C)CC(=O)c2sc(N3CCCCC3)nc2C1	-1.5	13%	-6	-6.4%	-3	-0.1%	-0.8
COc1ccc(N(CC(=O)Nc2cc(C)on2)S(=O)(=O)c2ccc(Cl)cc2)cc1	-0.6	15%	?	-0.6%	28	11%	2.4
Fc1ccc(Oc2cnns2)cc1	2.5	8%	-12	nt	-7	1.2%	-1.0
CCOC(=O)c1ccc(NC(=O)CSc2nnc(NC(=O)c3ccc(S(=O)(=O)N4CCOCC4)cc3)s2)cc1	11	1%	-4	-4.0%	12	8.0%	-0.4
COc1ccc(CNC(=O)C2CCN(C(=O)N3CC(C)Oc4ccc(C)cc43)CC2)cc1 (stereo not drawn)	nt	nt	nt	-0.3%	-3	-1.6%	-0.1
Cc1ccc(N(CC(=O)N2CCc3ccccc32)S(=O)(=O)c2cccs2)cc1	3.8	21%	6	-1.3%	48	0.6%[38.3 µM]	1.0
Cc1nn(CC(=O)NCC(C)c2ccccc2)c(=O)c2cc3occc3n12 (stereo not drawn)	nt	13%	?	-4.6%	0	0.9%	-0.4
CS(=O)(=O)Nc1ccc(C(=O)Nc2ccc(S(=O)(=O)N3CCCC3)cc2)cc1	-0.7	3%	13	nt	26	2.2%	-0.3
CS(=O)(=O)N(Cc1ccccc1)c1ccc(C(=O)NCCSc2ccccn2)cc1	0.1	24%	-9	0.8%	30	-0.6%	1.3
COc1ccc(C2C(C(=O)N3CCOCC3)=C(C)NC3=C2C(=O)CC(C)(C)C3)c(OC)c1 (stereo not drawn)	0.0	0%	-6	16µM*	-3	2.8%	0.7
Cc1ccc(NC(=O)c2nc[nH]c2C(=O)N2CCCCC2)c(C(=O)c2ccccc2)c1	3.0	12%	-8	-4.3%	-19	-1.6%	2.0
O=[N+]([O-])c1cccc(/C=N/Nc2cc(Cl)nc(-c3ccccc3)n2)c1	4.2	-4%	-11	?	18	?	-0.9
O=C(Nc1cccc(NC(=O)c2cccc([N+](=O)[O-])c2)n1)c1cccc([N+](=O)[O-])c1	-0.2	-7%	7	1.2%	31	11%	-0.8

Going on with the list.
molecule	Menin-MLL FL inh	Sfp PPTase inh	TRPV1 PAM	ClpP mod	TRPML1 blocker	PINK1 expr mod	TRPML1 agonist
N#CCn1c(CCl)nc2ccccc2c1=O	1.4	9%	0	-0.2%	-22	0.2%	-0.1
COc1ccccc1-c1cc(C(=O)N2CCN(c3ccccc3OC)CC2)no1	3.0	-19%	20	-1.6%	-6	5.1%[38.3 µM]	2.2
Cc1cn2c(-c3ccc(Cl)cc3)nnc2s1	-4.7	10%	-25	-5.4%	2	0.7%	0.7
CCOc1cc(NC(=S)Nc2cccc(OC)c2)c(OCC)cc1NC(=O)C1CC1	0.8	-11%	nt	0.0%	17	0.5%	0.9
CCOc1ccc(Nc2ncnc3c2cnn3C)cc1	-6.3	14%	-10	nt	10	0.7%	-0.5
C[n+]1c(-c2ccccc2)sc([S-])c1-c1ccccc1	nt	nt	nt	nt	-1	1.2%	1.7
CC(C)Nc1ncnc2c1ncn2[C@H]1CN(Cc2ccco2)C[C@@H](CO)O1	nt	nt	nt	0.9%	-4	2.4%	0.1
CCCC[C@H]1C2=C3[C@@H](CC(C(=O)OC)=C[C@@H](C(=O)OC)[C@H]3C(C)(C)C2=O)n2c(=O)n(-c3ccccc3)c(=O)n21	1.6	16%	nt	0.0%	6&-7	3.1%	-0.8&0.3
Fc1ccc(COc2ccc(/C=N/n3cnnc3)cc2)cc1	1.5	?	-2	1.1%	9	-0.3%	0.2
O=C(Nc1nnc(-c2ccco2)s1)C1CC1	1.9	-12%	4	32µM*	21	-0.6%	0.3
O=C(CN1CCN(Cc2ccccc2)CC1)N/N=C/c1cccs1	-3.7	15%	9	-1.9%	-3	-0.5%	-0.2
Cc1cc([N+](=O)[O-])nn1CCCC(=O)NC1CCCCC1	-0.5	11%	10	1.6%	9	0.9%	-0.6
CCOC(=O)N1CCN(C(=O)CN(c2cccc(Cl)c2C)S(=O)(=O)c2ccc(C)cc2)CC1	nt	nt	nt	-2.6%	-4	-2.3%	3.7
CC(=O)c1ccc(OCC(O)CN(C)CCOc2ccc(Br)cc2)cc1 (stereo not drawn)	-0.2	2%	2	nt	3	0.5%	0.9
O=C1C(=Cc2ccco2)CCCC1=Cc1ccco1	nt	nt	nt	nt	-3	12%	13
